# Bioassay records from PubChem.
# CtBP-E1A inh: CtBP/E1A binding inhibition | AlphaScreen GST-E1A/His-CtBP binding, 1536-well; active compounds read low; control for the full effect not named in the record | activity change, % (concentration not given with the values) | 340,000 tested, 0.49% active; in the data active means activity change below about -65%; inconclusive means about -30% to -65%; inactive means above about -30%; further: on the % scale 0 is the no-effect control and ±100 the full control effect
#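 Protein mix (5X: 125 nM each GST-E1A, His-CtBP) was incubated with pinned compound 2 h at 37 deg C in dark, in 50 mM Tris pH 8.0 buffer with 300 mM NaCl. Glutathione donor and nickel acceptor beads followed; AlphaScreen signal read after 1 h.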
# Six1-Eya2 blk: Six1/Eya2 interaction inhibition; 360,000 tested, 0.56% active; AlphaScreen GST-Six1/His-Eya2 binding, biochemical; active compounds read low; control for the full effect not named in the record; activity change, % (no concentration beside the values); AID 651725; Q15475+O00167; in the data active = activity change below about -65%; inconclusive = about -30% to -65%; inactive = above about -30%; further: on the % scale 0 is the no-effect control and ±100 the full control effect
#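 Homogeneous AlphaScreen proximity assay pairing GST-Six1 with His-tagged Eya2 (added as 5X mix: 250 nM and 500 nM) in 50 mM Tris pH 8.0, 300 mM NaCl, 1 mM TCEP. Glutathione donor and nickel acceptor beads; 1 h, 37 °C, dark.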
# D2 agonist: agonists of human D2 dopamine receptor (beta-arrestin) | P14416 | DiscoveRx PathHunter D2 beta-arrestin, luminescence, 90 min; 100% = 57 uM dopamine signal | activation, % (no concentration beside the values) | 360,000 tested, 0.084% active | AID 624465; in the data active = activation above about 40%; inconclusive = about 15% to 40%; inactive = below about 15%; further: compound concentration not given in the record; the text of the record calls up to 30% inactive
# Target sequence (P14416 whole entry, looked up): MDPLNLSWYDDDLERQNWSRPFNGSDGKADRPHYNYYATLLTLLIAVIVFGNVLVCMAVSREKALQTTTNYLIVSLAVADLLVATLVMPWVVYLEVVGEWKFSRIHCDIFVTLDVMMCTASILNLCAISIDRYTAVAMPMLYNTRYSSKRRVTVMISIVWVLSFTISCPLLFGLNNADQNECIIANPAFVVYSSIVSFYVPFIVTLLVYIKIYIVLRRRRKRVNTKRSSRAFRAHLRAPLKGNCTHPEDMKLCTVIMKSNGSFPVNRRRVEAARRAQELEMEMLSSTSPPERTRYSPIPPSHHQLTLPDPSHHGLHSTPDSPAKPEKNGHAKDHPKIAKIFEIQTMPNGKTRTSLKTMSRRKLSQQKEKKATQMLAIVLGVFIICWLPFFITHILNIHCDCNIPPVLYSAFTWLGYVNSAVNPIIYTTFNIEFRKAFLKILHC
#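 DiscoveRx PathHunter D2 beta-arrestin cells (2,100/well) attached overnight, then compound-stimulated 90 min at 37 C in HBSS/10 mM HEPES/0.1% Tween-20 buffer; beta-galactosidase complementation read by luminescence after 1 h at ambient temperature. Dopamine 57 uM final (EC100) as control.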
# TRPML1 ag: activates the human TRPML1 channel | activation, % (test concentration not listed) | TRPML1-expressing cells, Ca2+ dye fluorescence, FDSS; host cell line not named in the record; reference of the full effect not given here | Q9GZU1 | 410,000 tested, 0.12% active | AID 624414; in the data active = activation above about 50%; inconclusive = about 30% to 50%; inactive = below about 30%; further: 0% is about no effect; the text of the record puts the active cut at 80%
# Target sequence (Q9GZU1 whole entry, looked up): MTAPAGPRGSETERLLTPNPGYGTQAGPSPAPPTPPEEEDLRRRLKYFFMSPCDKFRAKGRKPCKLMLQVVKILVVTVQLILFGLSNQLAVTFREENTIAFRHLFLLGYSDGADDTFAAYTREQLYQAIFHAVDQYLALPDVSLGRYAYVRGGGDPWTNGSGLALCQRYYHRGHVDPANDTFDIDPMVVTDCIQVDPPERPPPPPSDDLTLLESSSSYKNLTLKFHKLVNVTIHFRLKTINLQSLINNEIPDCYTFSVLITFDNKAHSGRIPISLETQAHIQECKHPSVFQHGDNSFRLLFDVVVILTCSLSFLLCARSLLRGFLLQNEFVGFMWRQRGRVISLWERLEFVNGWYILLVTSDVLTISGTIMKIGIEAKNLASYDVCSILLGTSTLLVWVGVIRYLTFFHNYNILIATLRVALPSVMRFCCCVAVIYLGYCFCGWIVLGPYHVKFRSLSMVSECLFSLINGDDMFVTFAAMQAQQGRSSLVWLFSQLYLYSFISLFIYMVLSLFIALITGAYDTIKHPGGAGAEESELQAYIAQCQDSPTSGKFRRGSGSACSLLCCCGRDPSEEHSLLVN
#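 In this qHTS format, compounds were pin-transferred onto Ca8-dye-loaded TRPML1-DL cells induced with Tet overnight, and intracellular Ca2+ fluorescence was recorded kinetically for 110 s after a 10 s baseline. A subsequent 4uM final 54-4 (EC80) addition followed by a second 110 s read served as the antagonist phase.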
# PINK1 modulator: changes PINK1 expression. PINK1 immunofluorescence, high-content cytometry, 24 h. Potency, µM (titrated, usually from 76.6 µM), without a hit: at the top dose activation (PINK1 increase), hits mostly activators. 410,000 tested, 0.2% active. AID 624263; active = well fitted activation curve with a large enough effect; inconclusive = small, poorly fitted or top-dose-only effect; inactive = flat fitted curve, though single readings scatter; cell line not stated here;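 further: potency means the concentration at half of the fitted maximal effect; % of control where 0% means no effect; nearly all actives have a fitted effect of over 65% in size; a mitochondrial uncoupler was the plate control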
#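 PINK1 protein, normally rapidly degraded, was detected by immunofluorescence after 24 hour compound treatment of a stable cell line. Titration data (5 concentrations) came from laser-scanning cytometry, with CCCP-treated wells as controls.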
# D2 potentiator: potentiates the human D2 dopamine receptor allosterically; DiscoveRx D2 beta-arrestin cells, luminescence, 90 min; 100% = 57 uM dopamine signal; 360,000 tested, 0.23% active; P14416; potentiation, % (test concentration not listed); active = potentiation of 50% or more; inconclusive = 30% to 50%; inactive = 30% or less;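 further: compound concentration not given in the record; tested on top of an EC20 dose of dopamine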
#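 PathHunter beta-arrestin assay in DiscoveRx D2 cells. Compounds were added with an EC20 of dopamine (50 nM final) for 90 min at 37 deg C. Luminescence was read 1 h after detection reagent, with 57 uM dopamine as the EC100 control.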
# Starred values were filed as active, the others as inactive; u = inconclusive; x = not tested or not shown; [ ] = another dose, or the depositor's remark.
SMILES,CtBP-E1A inh,Six1-Eya2 blk,D2 agonist,TRPML1 ag,PINK1 modulator,D2 potentiator
COc1cc(OC)cc(C(=O)N[C@H](C(=O)OCC(=O)Nc2ccc(F)c(F)c2)C(C)C)c1,3,-4,-5.7,1.6,-0.8%,-2
Brc1ccc(-c2nnc3sc(CN4CCc5ccccc5C4)cn23)cc1,8,5,-0.8,x,4.1%,2
COCCCn1c(=O)c2sccc2n(Cc2cccc(F)c2)c1=O,1,11,-2.5,0.9,0.6%,-2
O=C1C(Cl)=C(NCc2cccnc2)C(=O)c2ccccc21,u,-17,u,-0.6,-3.3%,7
CC(=O)c1ccc(N2CCN(CC(=O)Nc3ccccc3N3CCOCC3)CC2)cc1,-18,-1,1.9,0.5,2.1%,0
CCCC(=O)Nc1ccc(-c2nc3cc(C)c(C)cc3o2)c(O)c1,-1,-8,-3.0,-0.5,3.9%,-5
COc1cc(OC)c(C(=O)NNC(=S)NC2CCCCC2)cc1OC,1,-2,-3.8,-0.2,5.7%,-5
Nc1n[nH]c(-c2ccc(Br)cc2)c1Cl,0,-1,-3.1,1.6,-1.4%,-14
CC(C)(C)c1ccc(OCC(O)CN(CCO)CC(O)Cn2ccc3ccccc32)cc1 (stereo unspecified),3,-3,-1.4,0.4,-0.8%,-2
Cc1nc(-c2ccccc2O)n(-c2ccccc2)n1,1,0,-4.1,-1.0,0.2%,-28
CCOC(=O)c1c(/N=C/c2cccc([N+](=O)[O-])c2O)sc(C)c1C,-6,-15,-8.4,2.4,2.6%,-26
Cc1noc(C)c1S(=O)(=O)N(CC(=O)NCc1ccc2c(c1)OCO2)c1ccc(C(C)C)cc1,3,2,-4.5,-0.3,3.3%,-7
NC(N)=Nc1nc(-c2ccccc2)c2cc(Cl)ccc2n1,x,0,-4.9,-0.7,-2.5%,-63
O[C@@H]1C[C@H](c2ccccc2)N(CC2CCCCC2)C[C@H]1n1cc(C2CC2)nn1,-6,6,-2.8,x,3.4%,x
CCCc1c(C(=O)N/N=C/c2ccc3c(c2)OCO3)nnn1-c1nonc1N,8,5,-2.9,-0.2,5.5%,-4
Cc1ccc(S(=O)(=O)NCc2csc(-c3cccs3)n2)cc1,9,4,-2.8,1.5,1.2%,-9
OCC1(CC2CCCCO2)CCN(Cc2ccccc2-c2ccco2)CC1 (stereo unspecified),x,-17,5.5,1.5,-0.7%,-9
CC1=CC=CC2=NC(=O)CC(C)(C(=O)N(CC(=O)NC(C)C)C3CCCC3)N12 (stereo unspecified),2,6,-0.5,0.5,4.5%[38.3 µM],1
COc1cccc(N2C(=O)Nc3ccc(Br)cc3C2(O)C(=O)NCCCN(C)C)c1 (stereo unspecified),1,3,0.5,1.0,4.8%,1
CSc1cccc(NC(=O)CSc2ncccc2C(=O)Oc2cccc([N+](=O)[O-])c2)c1,10,-22,1.7,-0.5,1.3%,-2
Cc1cc(N/N=C\c2ccc(Br)cc2)nc(-n2nc(C)cc2C)n1,0,-6,0.9,1.2,3.9%,5
COc1ccc(N2CCN(CCNC(=O)c3ccc4c(c3)[nH]c(=S)n3c5ccccc5nc43)CC2)cc1,-7,-13,-4.3,0.0,4.7%,-7
Cc1ccc(S(=O)(=O)N(C)C[C@@H]2Oc3ccc(NC(=O)Cn4cnnn4)cc3C(=O)N([C@@H](C)CO)C[C@H]2C)cc1,5,4,-1.2,0.3,-0.2%,-8
COc1ccc(C2CC(=O)c3cnc(NC(=O)c4ccccc4)nc3C2)cc1OC (stereo unspecified),-2,-4,3.8,2.8,1.1%,-2
COc1ccc(/C=C\C(=O)NCC(=O)N/N=C/c2cccc(OC)c2O)cc1,-22,-10,-3.6,-0.4,-1.5%,-14
O=C(Nc1ccccc1Cl)c1cnccn1,5,3,3.0,0.2,-6.0%[38.3 µM],-12
CC(=O)Nc1ccc(S(=O)(=O)N2CCC(C(=O)O)(c3ccccc3)CC2)cc1,7,-1,2.9,-0.1,3.6%,2
CCC(c1nnnn1CCc1ccccc1)N(Cc1ccco1)Cc1cc2cc(C)cc(C)c2[nH]c1=O (stereo unspecified),-16,-15,-5.7,1.2,2.4%,-14
CC(O)(c1ccc(F)c(F)c1)c1nc(-c2cccc3cccnc23)cs1 (stereo unspecified),7,4,2.7,-0.2,12%,-6
CC(=O)c1c2c3c(c(Br)ccc3n(C)c1=O)C(=O)c1ccccc1-2,-27,-3,-1.9,0.2,-1.0%,-3
CCCCc1c(C)nc2ccccc2c1SCCC#N,2,11,-0.6,-0.7,2.1%,-4
N#Cc1ccc(OCC(=O)N2CCN(c3ccc(C(F)(F)F)cn3)CC2)cc1,20,21,3.1,0.7,4.6%,-1
CCCc1cc(C(=O)Nc2cc(C)nn2-c2ccccc2)no1,0,5,-6.0,1.0,1.7%,-3
Cc1ccnc(NS(=O)(=O)c2ccc(NS(=O)(=O)c3ccc([N+](=O)[O-])cc3)cc2)n1,0,14,2.0,2.3,-1.6%,9
CCOC(=O)N1CCN(C(=O)C2CCCN(S(=O)(=O)c3ccc(F)cc3)C2)CC1 (stereo unspecified),2,-4,0.1,0.5,0.0%,-6
COCc1cc(C)n(CC(=O)NC(C)c2ccccc2)c(=O)c1C#N (stereo unspecified),-5,0,0.4,5.1,-0.8%,1
Cc1ccc(NC(=S)NCCCN2CCOCC2)cc1C,x,0,-4.9,0.2,1.5%,-30
Cc1[nH]c2ccccc2c1C(=O)COC(=O)Cn1cnc2ccccc21,-1,5,-1.1,1.2,6.6%,-7
C=CCn1c(=O)c2c(nc3n2CCN3c2cccc(Cl)c2C)n(C)c1=O,1,-4,-6.1,0.5,7.2%,-27
Cc1ccc2nc(SCC(=O)Nc3nonc3N)[nH]c2c1,x,-1,-1.2,3.3,-0.7%,25

# In the list so far, these contain a furan ring, fused or not:
SMILES,CtBP-E1A inh,Six1-Eya2 blk,D2 agonist,TRPML1 ag,PINK1 modulator,D2 potentiator
OCC1(CC2CCCCO2)CCN(Cc2ccccc2-c2ccco2)CC1 (stereo unspecified),x,-17,5.5,1.5,-0.7%,-9
CCC(c1nnnn1CCc1ccccc1)N(Cc1ccco1)Cc1cc2cc(C)cc(C)c2[nH]c1=O (stereo unspecified),-16,-15,-5.7,1.2,2.4%,-14

# (continued)
SMILES,CtBP-E1A inh,Six1-Eya2 blk,D2 agonist,TRPML1 ag,PINK1 modulator,D2 potentiator
COc1ccc2[nH]cc(CCNC(=O)CS(=O)(=O)Cc3ccccc3)c2c1,-2,-6,2.4,1.3,1.7%,-2
Cc1ccc(SCCNC(=O)/C=C/c2ccc([N+](=O)[O-])cc2)cc1,-22,-21,-1.2,2.3,1.5%,-9
CC1(C)Cc2nc(-c3ccccc3)nc(SCC(=O)N3CCCC3)c2CO1,1,10,1.2,0.8,0.5%,-6
COc1ccc(-c2noc(C3CCCN(C(=O)Nc4ccccc4F)C3)n2)cc1 (stereo unspecified),-17,-3,-3.3,1.3,0.2%,-21
O=C(OC1CCOC1=O)c1cccc(S(=O)(=O)N2CCc3ccccc3C2)c1 (stereo unspecified),-4,9,-8.0,0.1,1.2%,-7
Cc1cnc(C(=O)Nc2ccc(S(=O)(=O)N(C(C)C)C(C)C)cc2)cn1,x,0,3.9,-1.0,5.5%,-3
COC(=O)c1cccc(C(=O)N2CCCC(C(=O)c3ccccc3OC)C2)c1 (stereo unspecified),-5,3,2.6,-0.9,4.3%,-7
CSc1cccc(NC(=S)NN(C)C)c1,6,3,-2.5,-0.5,-1.7%,-11
CC1(C(=O)NS(=O)(=O)c2ccccc2C(F)(F)F)CCN1C(=O)c1cccc(F)c1 (stereo unspecified),0,-1,-5.9,-0.4,2.6%,-6
Cc1ccc(S(=O)(=O)Nc2c(NC3CCCCC3)c3ccccc3oc2=O)cc1C,x,-3,0.6,0.1,-0.2%,-9
Cc1c(C(=O)O)nnn1-c1ccccc1,12,9,-0.1,-0.5,0.9%,-2
COc1ccccc1N1C(=O)CSC1=S,x,-1,-2.8,-0.6,0.1%,-3
O=C(Cc1ccc([N+](=O)[O-])cc1)NCc1ccccn1,2,-8,-0.7,-0.3,0.1%,-3
Cc1cccc(-n2c(=O)cc(N3CCN(c4ccc(F)cc4)CC3)[nH]c2=O)c1,6,0,-2.9,-0.2,3.8%,-17
COc1cccc(CN2CCN(Cc3nc(-c4cccs4)oc3C)CC2CCO)c1 (stereo unspecified),x,6,-0.1,-0.4,-1.7%,-6
Cc1ccc(NC(=O)CCCSc2ccccc2)cc1S(=O)(=O)N1CCOCC1,0,-8,0.1,-1.0,2.1%,-20
CC(C)CNS(=O)(=O)c1ccc(CCC(=O)NCc2ccncc2)cc1,12,3,-7.1,-0.6,0.1%,-6
CN(Cc1ccccc1F)C(=O)c1ccc2c(=O)n3c(nc2c1)CCC3,11,1,-1.7,-0.2,0.2%,4
S=c1[nH]nc(-c2ccncc2)n1/N=C/c1cccc(Cl)c1,0,4,-3.2,1.3,0.0%,-14
CCOc1cc(CC(=O)N[C@@H](CC(C)C)c2ccccc2N2CCCCC2)ccc1C(=O)O,0,-11,-4.1,0.2,-0.2%,8

# 3 of the compounds above, field by field:
> Cc1c(C(=O)O)nnn1-c1ccccc1
  CtBP-E1A inh: 12 | Six1-Eya2 blk: 9 | D2 agonist: -0.1 | TRPML1 ag: -0.5 | PINK1 modulator: 0.9% | D2 potentiator: -2

> COc1ccccc1N1C(=O)CSC1=S
  CtBP-E1A inh: x | Six1-Eya2 blk: -1 | D2 agonist: -2.8 | TRPML1 ag: -0.6 | PINK1 modulator: 0.1% | D2 potentiator: -3

> O=C(Cc1ccc([N+](=O)[O-])cc1)NCc1ccccn1
  CtBP-E1A inh: 2 | Six1-Eya2 blk: -8 | D2 agonist: -0.7 | TRPML1 ag: -0.3 | PINK1 modulator: 0.1% | D2 potentiator: -3

# Continuation:
SMILES,CtBP-E1A inh,Six1-Eya2 blk,D2 agonist,TRPML1 ag,PINK1 modulator,D2 potentiator
COc1cccc(NC(=O)Nc2ccc3c(c2)nnn3C)c1,-6,-7,-1.8,-1.1,2.1%,-31
CC1CN(CC(=O)NCc2ccc(F)cc2)CC(C)O1 (stereo unspecified),6,10,-1.6,1.3,-1.6%,-12
CCCCCN(C(=O)COC(=O)c1ccc(Br)o1)c1c(N)n(CCCC)c(=O)[nH]c1=O,7,0,-0.6,-0.7,5.0%,-6
COC(=O)c1cc(CN2CCN(c3ccccc3C)CC2)ccc1O,-2,-8,-3.5,2.1,0.3%[38.3 µM],-21
O=C(O)c1ccccc1NS(=O)(=O)c1ccc(NNC(=S)Nc2ccc(OC(F)F)cc2)c([N+](=O)[O-])c1,-16,u,-9.8,1.8,1.5%,-23
CCC(=O)NC(=S)Nc1ccc(NC(=O)c2ccc(Br)o2)cc1,x,-2,-2.6,0.3,-0.8%,-6
COc1ccccc1NC(=O)c1ccccc1NC(=O)c1cccs1,6,7,-4.0,1.8,4.0%,-6
CCOc1ccc2ccccc2c1C(=O)NCC(c1ccc(N(C)C)cc1)N(C)C (stereo unspecified),-4,-16,-1.6,-0.7,-0.6%,-18
CCCCCOc1ccc(C(=O)CCN2CCOCC2)cc1,5,2,1.7,5.0,3.9%,1
CN(C)c1ccc(CNC(=O)C2CCN(S(=O)(=O)c3ccc4c(c3)CCC(=O)N4)CC2)cc1,-5,-18,-2.1,-0.5,1.3%,0
